# Screening data as filed in PubChem BioAssay.
# HPGD inh = inhibitors of human 15-hydroxyprostaglandin dehydrogenase (HPGD). purified HPGD, NADH fluorescence kinetic, PGE2 substrate. 150,000 tested, 4.3% active. P15428. Potency, µM, for the others: at the top dose activity change, negative = inhibition, actives largely listed as inhibitors. AID 894; active = well fitted inhibition curve with a large enough effect (not every such curve was filed as active); inconclusive = small, poorly fitted or top-dose-only effect, or another doubt; inactive = no such curve, though single readings can be large or run the other way;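 further: top concentration of the series not given in the record; plate controls included wells without enzyme; inactives centre near -10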
# Target sequence (P15428 whole entry, looked up): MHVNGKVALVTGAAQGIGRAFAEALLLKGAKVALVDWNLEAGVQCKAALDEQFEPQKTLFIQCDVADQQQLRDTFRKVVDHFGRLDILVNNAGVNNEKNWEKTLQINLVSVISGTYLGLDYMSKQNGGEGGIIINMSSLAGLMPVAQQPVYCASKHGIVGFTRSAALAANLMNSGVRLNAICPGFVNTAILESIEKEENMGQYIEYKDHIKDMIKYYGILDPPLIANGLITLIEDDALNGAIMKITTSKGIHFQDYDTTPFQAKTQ
#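 20 nM HPGD preincubated 15 min at room temperature with compound in 50 mM Tris-HCl pH 8, 0.01% Tween 20. Started with 1 mM NAD+ and 30 uM prostaglandin E2; NADH fluorescence (360/450 nm) read 5 times over 30-s intervals, last minus first.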
# * marks the source's active call; other numbers are inactive results; ? = inconclusive; & = joins results of further samples. On the % scale 0 is the no-effect control and ±100 the full control effect; potency means the concentration at half of the fitted maximal effect. The list is partial; rates above refer to the full screens.
HPGD inh	SMILES
-7.3%	COCCn1c(CCC(=O)O)nc2c1c(=O)[nH]c(=O)n2CC(C)C
-11.5%	CC(=O)Nc1ccc(C(=O)OCc2ccc(Cl)cc2)cc1
-8.5%	CCOc1ncccc1C(=O)OCC(=O)Nc1cc(S(=O)(=O)N2CCOCC2)ccc1C
?	COC(=O)c1ccc(COc2ccc3c(C)c(C)c(=O)oc3c2C)o1
?	O=C1/C(=C/c2ccccc2)N=C(N2CCOCC2)N1c1cccc(Cl)c1
-11.9%	COc1cc(OC)c(C2C(C(=O)N3CCOCC3)=C(C)NC3=C2C(=O)CC(C)(C)C3)cc1OC (stereo not drawn)
?	C=CCn1cc(-c2ccccc2)cc(C#N)c1=O
-8.1%	CCCC1(C(=O)OC)C=C2C(=C(C(C)C)C(=O)C2C)CN1 (stereo not drawn)
-11.9%	COC(=O)c1ccc(NC(=O)c2ccccc2NS(C)(=O)=O)cc1
?	COc1ccc(-n2nc(C(=O)N3CCN(c4ccc(F)cc4)CC3)c3ccccc3c2=O)c(OC)c1
-4.6%	Cc1cc(C)c(S(=O)(=O)N2C=CC(C(F)(F)F)=NCC2)c(C)c1
2.1%	CCOc1ccc(N(C(C)=O)c2nc(C)cc(C)c2C#N)cc1
-12.2%	O=S(=O)(Nc1nc2ccccc2s1)c1ccc(Cl)s1
-12.1%	COc1ccc2[nH]c(C)c(CCNC(=S)Nc3cc(C)ccc3C)c2c1
-11.6%	Cc1ccc(Oc2nc3ccccc3n3c(C)nnc23)c(C)c1
14.1µM*	CC(NC(=O)C1CCC1)c1ccc(Cl)cc1 (stereo not drawn)
-3.7%	COc1cccc(-n2c(Cc3cc(=O)[nH]c(=O)[nH]3)nnc2SC(C)C)c1
?	CC[C@H]1C(c2ccccc2)=NN(c2ccccc2)[C@@H]1CO
-10.3%	CCOC(=O)N1CCN(C(=O)c2ccc(OC)c(OC)c2)CC1
-25.8%	O=C(NCc1ccc(F)cc1)c1cc2c(s1)CCCC2
-9.2%&-11.9%	C[C@]1(C(=O)NCCCNc2ncc(C(F)(F)F)cc2Cl)C=C[C@@H](Cc2ccccc2)N1C(=O)c1ccccc1
-13.8%	C=C1c2cccc(OC)c2O[C@H](C(=O)OCC)[C@@H]1CCCCCC
-6.0%	CC(=O)Nc1nc2ccccc2n1CCN(C)C
-2.9%	CCOC(=O)C1CCCN(C(=O)COc2ccccc2O)C1 (stereo not drawn)
-15.3%	O=C(CN1C(=O)CCSc2ccccc21)Nc1ccc2c(c1)OCCO2
-6.0%	CCOc1ccc(N/C(SC)=C(/C#N)C(N)=O)cc1
-18.8%	Cn1cccc1C(=O)NC(=O)COC(=O)CC12CC3CC(CC(Br)(C3)C1)C2
-20.0%	Cc1ccc(S(=O)(=O)N/N=C/c2cccn2-c2ccc(Cl)cc2)cc1
-26.8%	COc1cc2c(cc1NC(=O)CCCCCN1C(=O)CCC1=O)oc1ccccc12
-5.7%	Cc1onc(C(=O)N2C(C)CCCC2C)c1[N+](=O)[O-] (stereo not drawn)
?	CC(C)c1ccc(CC(C)C2C3=C(CCCC3=O)OC3=C2C(=O)CCC3)cc1 (stereo not drawn)
15.8µM*	O=C(O)CSc1nc(-c2ccc(Cl)cc2)nc2c1oc1ccccc12
-16.4%	Nc1nnc(CSc2ccc(Cl)cc2)s1
-3.6%	O=C(CN1CCOCC1)N(c1ccccc1)c1ccc2ccccc2c1
-7.2%	CCOc1ccc(NC(=O)CCSc2nnc(C)s2)cc1
-16.0%	Cc1cc(/C=N/n2cnnc2)c(C)n1-c1ccc(C(=O)O)cc1
-15.9%	COc1ccc(C(=O)NC(=S)N(Cc2ccccc2)Cc2ccccc2)cc1
-11.9%	O=C(Cc1ccc(-n2cnnn2)cc1)NC12CC3CC(CC(C3)C1)C2
-7.3%	Cc1ccc(S(=O)(=O)N2CCc3nc(-c4ccccc4)c4c(c3C2)CO[C@@H](C)C4)cc1
-8.5%	Cc1nc(NC(=O)CSc2nnnn2Cc2ccccc2)sc1C
?	C=CC(C1=CC(=O)C(OC)=CC1=O)c1ccc(OC)cc1 (stereo not drawn)
-22.3%	C=CCNC(=S)Nc1cc(Cl)ccc1OC
31.6µM*	Cn1nnc2sc3c(c2c1=O)CCCC3
-9.2%	CC(=O)c1c(C)[nH]c(C(=O)CSc2nnc(-c3ccc(Cl)cc3)n2CC2CCCO2)c1C (stereo not drawn)
?	CC1=CC2=NC(=O)CC(C)(C(=O)N(CC(=O)NC(C)(C)C)C3CCCC3)N2C=C1 (stereo not drawn)
-9.2%	C=C(C(C)=O)C(O)c1ccc(Cl)cc1 (stereo not drawn)
-4.5%	CCc1nc(SCC(=O)NCc2ccc(F)cc2)c2c(=O)n(C)c(=O)n(C)c2n1
-19.2%	COC(=O)C1=C(C)N=C2SCCC(=O)N2C1c1ccc(OC(=O)c2ccco2)cc1 (stereo not drawn)
?	COc1ccc(-c2ccccc2)cc1NCc1ccc(OC)c(OC)c1
14.1µM*	CCCc1nnc(NC(=O)CN2C(=O)c3ccccc3S2(=O)=O)s1
-12.3%	Cc1nnc(SCC(=O)NCc2ccccc2)s1
-8.2%	COc1ccc(N2C(=O)CC(N3CCN(c4nc5ccccc5s4)CC3)C2=O)cc1 (stereo not drawn)
-27.9%	CN(C)S(=O)(=O)c1ccc(NCC2COc3ccccc3O2)c([N+](=O)[O-])c1 (stereo not drawn)
-9.9%	CCS(=O)(=O)n1nc(NCc2cccc(OC)c2)nc1NCc1cccc(OC)c1
-2.7%	CS[C@]12C(=O)C[C@]3(C)[C@@H](CC[C@@]3(O)C(=O)CO)[C@@H]1CCC1=CC(=O)CC[C@]12C
-6.6%	O=C(CSc1nc2ccccc2o1)N/N=C/c1ccccc1
-6.2%	O=C(CC(Nc1ccc(F)cc1)C(=O)O)c1ccccc1 (stereo not drawn)
-3.7%	Nc1cnc(-c2ccccc2)nc1Cl
-8.5%	CCOC(=O)C1CCN(c2ncnc3c2oc2ccccc23)CC1
-7.6%	CCOC(=O)c1ccc(NC(=O)CSc2nnc(COc3ccccc3OC)n2C)cc1

# Not a retest: entries from further up.
HPGD inh	SMILES
?	CC(C)c1ccc(CC(C)C2C3=C(CCCC3=O)OC3=C2C(=O)CCC3)cc1 (stereo not drawn)
15.8µM*	O=C(O)CSc1nc(-c2ccc(Cl)cc2)nc2c1oc1ccccc12
-16.4%	Nc1nnc(CSc2ccc(Cl)cc2)s1
-3.6%	O=C(CN1CCOCC1)N(c1ccccc1)c1ccc2ccccc2c1
-7.2%	CCOc1ccc(NC(=O)CCSc2nnc(C)s2)cc1
-16.0%	Cc1cc(/C=N/n2cnnc2)c(C)n1-c1ccc(C(=O)O)cc1
-15.9%	COc1ccc(C(=O)NC(=S)N(Cc2ccccc2)Cc2ccccc2)cc1

# Shown as a hit in HPGD inh, among the entries above:
HPGD inh	SMILES
14.1µM*	CC(NC(=O)C1CCC1)c1ccc(Cl)cc1 (stereo not drawn)
15.8µM*	O=C(O)CSc1nc(-c2ccc(Cl)cc2)nc2c1oc1ccccc12
31.6µM*	Cn1nnc2sc3c(c2c1=O)CCCC3
14.1µM*	CCCc1nnc(NC(=O)CN2C(=O)c3ccccc3S2(=O)=O)s1

# (further entries)
HPGD inh	SMILES
?	CC(C)c1cccc2c([Si](C)(C)C)c3c(nc12)-c1cccc(=O)n1C3
-9.8%	CCOC(=O)c1c(NC(=O)c2ccc(Cl)cc2)csc1C
-0.6%	CC(=O)Nc1ccc2c(c1)/C(=C/c1ccc([N+](C)(C)C)cc1)c1ccccc1-2
0.2%	C=CCC(=O)OCC(=O)Nc1ccc(Cl)cn1
-6.1%	CCC(Sc1nc(=O)cc(N)n1CCc1ccccc1)C(=O)Nc1cc(C)on1 (stereo not drawn)
0.2%	CN1CCCN(Cc2ccc(Cl)cc2Cl)CC1
-12.8%	CCOC(=O)c1nnn(CC(=O)N2N=C(c3ccc(Cl)cc3)CC2c2ccccc2)c1C(=O)OCC (stereo not drawn)
-19.2%	O=C1Nc2ccc(S(=O)(=O)N3CCCC3C(=O)O)c3cccc1c23 (stereo not drawn)
-11.6%	CN(C)c1nc(Oc2ccc(=O)n(C)n2)nc(N2CCOCC2)n1
-17.5%	Cc1ccc(C)c(NC(=S)N(C)CCc2ccccn2)c1
-3.6%	COc1cc(NC(=O)C2CCCN2S(=O)(=O)c2ccc3c(c2)CCC(=O)N3)cc(OC)c1 (stereo not drawn)
-1.8%	O=C(Nc1nc2ccccc2[nH]1)c1ccc(Cl)c(S(=O)(=O)N2CCCC2)c1
?	Cc1ccc2cccc(SCC(=O)NCc3ccco3)c2n1
-12.9%	CCOC(=O)c1cnc(SC2CC(=O)N(c3ccc(OC)c(OC)c3)C2=O)nc1N (stereo not drawn)
-19.5%	CCOC(=O)Cc1cc(-c2ccc(O)cc2)nc2ccc3ccccc3c12
-16.8%	COc1ccc(/C=C/C(=O)NCCCc2ccccc2)cc1
?	COC(=O)c1sccc1-c1ccc(/C=N/OC(=O)c2ccccc2)o1
-14.9%	O=C(CNC(=O)c1ccc(Br)o1)Nc1cccc(-c2cnc3ccccc3n2)c1
-10.1%	Cc1ccc(C(C)C)c(OCC(=O)NNC(=O)C(C(C)C)N2C(=O)c3ccccc3C2=O)c1 (stereo not drawn)
-7.4%	CCCNCc1cc(OC)c(OCC(=O)NCCc2ccccc2)cc1Br
-9.2%	Cc1cc(C)n(CCCNC(=O)c2ccc(S(=O)(=O)NCc3ccco3)cc2)n1
-10.6%	O=C(Nc1sc2c(c1CN1CCOCC1)CCC2)c1ccc(F)cc1
?	O=C(N/N=C/c1cn(-c2ccccc2)nc1-c1cc2ccccc2o1)c1cccnc1
-1.9%	Cc1nnc(SCC2CCCO2)n1-c1ccccc1 (stereo not drawn)
-0.3%	COc1cc(Cl)c(C)cc1NC(=O)CSCC#N
-16.4%	CCC/C=C(\CCC)C(NS(=O)(=O)c1ccc(Cl)cc1)c1ccc(C(=O)OC)cc1 (stereo not drawn)
-3.8%	NS(=O)(=O)c1ccc(NC(=S)Nc2ccc(F)c(F)c2)cc1
-5.7%	CN(CC(O)COCc1cccs1)C1CCCCC1 (stereo not drawn)
-10.3%	O=C(O)C1CCCN1C(=O)Nc1ccc(F)cc1 (stereo not drawn)
?	CN(C)c1ccc(-c2nn3c(-c4ccccc4Cl)nnc3s2)cc1
-17.7%	CC(C)C(=O)N1CCN(c2ccc([N+](=O)[O-])c(NC(C)c3ccccc3)c2)CC1 (stereo not drawn)
-6.2%	Cc1ccc(NC(=O)N2CCN(Cc3ccc4c(c3)OCO4)CC2)cc1
-11.7%	O=C(CCc1ccc(S(=O)(=O)NCCc2ccccc2)cc1)NCc1ccco1
-5.0%	NC(N)=NCCC[C@H](NC(=O)CC1(CC(=O)N2CCN(C3c4ccccc4NC(=O)c4ccccc43)CC2)CCCC1)C(=O)NCCn1c(=O)n(-c2ccccc2)n(-c2ccccc2)c1=O (stereo partly drawn)
-0.6%	N#Cc1c(N)c(C(=O)c2ccccc2)n2c1CCC2
-2.7%	COC(=O)[C@H](CC(C)C)NC(=O)NC1CCCc2ccccc21 (stereo partly drawn)
-11.8%	CCOC(=O)c1c(Nc2nc(C)c(C(=O)NC)s2)sc(C)c1C
-9.7%	Cn1c(CCN2CCOCC2)nc2cc(NC(=O)COc3ccccc3)ccc21
-24.9%	Brc1cnc(N2CCCC2)nc1N1CCCCC1
25.1µM*	CCN(CC)C(=O)c1cccc(C)c1
-15.5%	CN(C)S(=O)(=O)c1cccc(N=c2scc(-c3ccc4c(c3)NC(=O)CO4)n2CC2CCCO2)c1 (stereo not drawn)
-18.7%	Cc1ccc2nc(NC(=O)c3ccco3)sc2c1
-2.2%	CO/C([O-])=N/c1c[n+](-c2ccc(Cl)cc2)no1
-5.8%	CC1CCCN(C(=O)Cn2c(=O)oc3ccccc32)C1 (stereo not drawn)
-3.0%	COC(=O)CSc1nc2cc3c(cc2cc1C)OCCO3
-11.4%	CC1=C(C(=O)OCC(C)C)[C@]23C(=O)c4ccccc4[C@@]2(O1)OC(N)=C3C#N
-9.0%	CCOC(=O)C1=CSC2=NS(=O)(=O)CCN12
-10.0%	CCOc1ccc(NC(=O)CN2C(=O)C3CC=CCC3C2=O)cc1 (stereo not drawn)
?	CCOC(=O)c1cc(-c2ccc(Cl)cc2)nc2c1c(C)nn2CCC#N
-12.6%	CCc1nnc(NC(=O)c2ccc(S(=O)(=O)N3CCCCC3C)cc2)s1 (stereo not drawn)
-10.9%	C=CCNCCOc1cccc(Br)c1
-7.8%	NNC(=O)c1cccc(COc2cccc(Br)c2)c1
-19.6%	COc1cccc(OC)c1C(=O)NC(C)C12CC3CC(CC(C3)C1)C2 (stereo not drawn)
-4.3%	COc1ccc(-n2c(C)cc(C(=O)Cn3nc(C(=O)O)c4ccccc4c3=O)c2C)cc1
?	N#Cc1nc(-c2cccs2)oc1NCCc1ccccc1
-2.9%	CCOC(=O)N1CCN(S(=O)(=O)c2cc(OCC(N)=O)c(C)cc2Cl)CC1
-5.5%	COc1ccccc1-c1ccc(Nc2cccc(C(F)(F)F)c2)nn1
4.0%	CC(=O)Nc1ccc(OCC(O)CN2CCN(S(=O)(=O)c3ccc(NC(C)=O)cc3)CC2)cc1 (stereo not drawn)
-6.5%	CC(=O)O[C@H]1CC2(C)[C@@H](C[C@@H](O)[C@H]3[C@@]4(C)CC[C@@H](O)[C@@H](C)[C@@H]4CC[C@@]32C)C1=C(CCC=C(C)C)C(=O)O (stereo partly drawn)
-28.9%	Cc1ccc(-n2nnnc2-c2nc3ccccc3s2)cc1
-15.1%	COc1ccc(Nc2nc(C)cc(C)c2C(N)=O)c(OC)c1
-7.3%	O=S(=O)(/C=C/c1ccccc1)NC1CCCCCCC1
-4.6%	O=c1cc(CN2CCN(c3ccc(F)cc3)CC2)nc2sccn12
